High-throughput results (PubChem)
total CFTR = total CFTR protein upregulators, primary screen, cell-based, HeLa F508del-CFTR, immunofluorescence, viability (AID 1224863) | HeLa F508del-CFTR, immunofluorescence total CFTR, 24 h; by the record results were divided by relative cell number; some inactives read as strong as hits | calls, or highest fold increase where a dose series was run | actives 0.1% (n = 10,000); in the data nearly all actives have a first-pass fold increase above 1.5; a few of its hits are not listed in these tables;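 note: total CFTR protein by anti-CFTR immunofluorescence in fixed cells; first pass at 25 µM or 10 µg/mL by library and series up to twice that; 1 = untreated cells; first-pass hits also needed half or more of the cells alive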
total CFTR fold 25 µM = second read-out of total CFTR, no call of its own (marks repeat the call); fold increase; measured here: primary screen single dose 25 uM; library dosed in µM
total CFTR fold 10 ug/mL = second read-out of total CFTR, no call of its own (marks repeat the call); fold increase; measured here: primary screen 10 ug/mL
total CFTR viability 25 µM = further read-out of total CFTR, marked with its call; viability, %; measured here: primary viability 25 uM; library dosed in µM;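 0% = killed and 100% = untreated cells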
total CFTR viability 10 ug/mL = also measured in total CFTR; calls as there; viability, %; measured here: primary viability 10 ug/mL;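 0% = killed and 100% = untreated cells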
An asterisk follows results filed as active; i = inactive; . = no result given; & = joins results of further samples.

SMILES	total CFTR	total CFTR fold 10 ug/mL	total CFTR viability 10 ug/mL	others
CC1CCCN(Cn2cc(S(=O)(=O)N(C)C)ccc2=S)C1 (stereo not drawn)	i	0.94	99
CSc1ccc(NC(=O)NCCCN(C)CC(F)(F)F)cc1	i	0.96	99
NCCCNc1ccccc1[N+](=O)[O-]	i	0.91	86
Cc1cc(/C=C/C(=O)N2CC(C)OC(C)C2)c(C)n1C1CCCCC1 (stereo not drawn)	i	1.2	94
O=[N+]([O-])c1ccc(NC(c2ccccc2)c2ccccc2)cc1	i	0.95	84
Cc1cc(SCc2nnsc2Cl)nc(C)n1	i	0.99	86
CN(C)C(=O)C1CCCN1CC(=O)Nc1sccc1C(N)=O (stereo not drawn)	i	1.1	110
O=C(O)C1CC(=O)N(c2ccc(S(=O)(=O)Nc3cc(Cl)cc(Cl)c3)cc2)C1 (stereo not drawn)	i	1	101
C=CCNC(=O)NC(=O)CSc1nnc(C2CC2)n1C1CC1	i	1.1	99
CC1CCCN(C2=NS(=O)(=O)c3ccccc32)C1 (stereo not drawn)	i	1.1	89
CC(NC(=O)c1cc2c(s1)CCC2)C1CCCO1 (stereo not drawn)	i	0.91	80
COCCNc1nc(-c2[nH]c(C)c(C(=O)OC)c2C)cs1	i	0.82	74
Cc1cc2nc3c(=O)[nH]c(=O)nc-3n(C[C@H](O)[C@H](O)[C@H](O)CO)c2cc1C	i	.	.	total CFTR fold 25 µM=1.1;total CFTR viability 25 µM=104
C=CCSc1nc2c(c(=O)[nH]c(=O)n2C)n1CCC(C)C	i	0.99	93
COCCNc1ccc(S(=O)(=O)NCCCN(C)C)cc1[N+](=O)[O-]	i	0.92	108
CC1CN(Cc2csc(NC(=O)C3CCC3)n2)CC(C)O1 (stereo not drawn)	i	1.1	91
COCCNC(=O)CSc1nc(=O)[nH]c(C)c1C(C)=O	i	1.1	95
Cc1cnc(NC(=O)COCC2CC2)s1	i	1	100
CC1(C)NC(=O)N(CCSc2ccc(C(C)(C)C)cc2)C1=O	i	0.87	88
NC(=O)Cn1c(SCC(=O)NCc2cccs2)nnc1C1CC1	i	0.94	97
O=C(OCCOc1ccc(Br)cc1)c1ccc(OC(F)(F)F)cc1	i	1.1	89
C=CCSc1nnc(NC(=O)C(NC(=O)C23CC4CC(CC(C4)C2)C3)C(C)C)s1 (stereo not drawn)	i	0.9	87
Cc1occc1-c1nnc(SCc2csc(-c3cccs3)n2)o1	i	1	101
Cc1cc(=O)n(-c2ccccc2)n1C	i	.	.	total CFTR fold 25 µM=1;total CFTR viability 25 µM=83
CC(C)(C)OC(=O)N1CCN(C(=O)CN2C(=O)NC3(CCCCC3)C2=O)CC1	i	1.1	102

Other records follow:
SMILES	total CFTR	total CFTR fold 10 ug/mL	total CFTR viability 10 ug/mL	others
O=C1NC2(CCCC2)C(=O)N1CCOc1ccc(Cl)cc1	i	1	109
CC1(C)S[C@@H]2[C@H](NC(=O)COc3ccccc3)C(=O)N2[C@H]1C(=O)O	i	.	.	total CFTR fold 25 µM=1&1;total CFTR viability 25 µM=89&104
O=C(O)CCn1cccnc1=O	i	1.1	97
COc1cc(CN)ccc1OC1CCCC1	i	1.1	96
CSCCC1NC(=S)N(c2cccc(N3CCOC3=O)c2)C1=O (stereo not drawn)	i	0.95	103
O=S(=O)(Nc1ccc(Cl)cc1)c1ccc(N2CCOCC2)c(NS(=O)(=O)c2cc(Br)ccc2Br)c1	i	0.89	93
Clc1ccccc1-n1c(SCc2nc(-c3ccccc3)no2)nnc1N1CCCC1	i	0.99	86
CNS(=O)(=O)Cc1ccc2[nH]cc(CCN(C)C)c2c1	i	.	.	total CFTR fold 25 µM=1&1.1&1.1;total CFTR viability 25 µM=107&83&110
N#C/C(=C/c1ccc(C#N)cc1)c1nc(-c2ccccc2)cs1	i	0.93	102
Cc1nn(CN2CCC(c3nc4ccccc4o3)CC2)c(=S)n1C1CC1	i	1	102
COC(=O)C1=C(C)NC(C)=C(C(=O)OCC(C)C)C1c1cccc([N+](=O)[O-])c1 (stereo not drawn)	i	.	.	total CFTR fold 25 µM=1.1;total CFTR viability 25 µM=70
CC(=O)OCC(=O)[C@@]12OC3(CCCC3)O[C@@H]1CC1C3CCC4=CC(=O)C=C[C@]4(C)[C@@]3(F)[C@@H](O)C[C@@]12C (stereo partly drawn)	i	.	.	total CFTR fold 25 µM=0.96;total CFTR viability 25 µM=78
CC(c1nnc(-c2ccc([N+](=O)[O-])cc2)o1)N1CCCc2ccccc21 (stereo not drawn)	i	0.92	90
CCCCCCCCCNC(=O)c1nccnc1N	i	0.79	86
O=C(COc1ccc(N2CCCC2=O)cc1)NC1CCCC1	i	0.94	98
O=C(OCc1cc(=O)n2cc(Cl)ccc2n1)c1cccnc1SCC(F)(F)F	i	1.1	94
O=C(CN1C(=O)NC2(CCCCC2)C1=O)c1ccc(F)c(F)c1	i	0.96	68
Cn1ccc(NC(=O)C2CCC(C(C)(C)C)CC2)n1 (stereo not drawn)	i	0.99	79
O=S(=O)(NCC1(c2ccccc2)CCC1)c1cccc(F)c1	i	0.91	91
COC(=O)C1=C(C)N(C2CC2)C(=S)NC1c1ccc(F)cc1F (stereo not drawn)	i	1	92
O=C(NCCc1ccccc1F)NC1CCSc2ccccc21 (stereo not drawn)	i	1	95
CC(C)(C)OC(=O)NCCC(=O)NC1CC2CC1C1CCCC21 (stereo not drawn)	i	1	90
COc1ccc(CNCc2cn[nH]c2-c2ccc(OC)cc2)cc1	i	0.92	96
Cc1ccc(C)c(CS(=O)(=O)Cc2ccccc2SC(F)F)c1	i	1	86
CCOc1ccc(-n2c(SCc3cc([N+](=O)[O-])cc4c3OCOC4)nnc2-c2cccnc2)cc1	i	1	78

Nothing new here: an excerpt of the list.
SMILES	total CFTR	total CFTR fold 10 ug/mL	total CFTR viability 10 ug/mL	others
O=C1NC2(CCCC2)C(=O)N1CCOc1ccc(Cl)cc1	i	1	109
CC1(C)S[C@@H]2[C@H](NC(=O)COc3ccccc3)C(=O)N2[C@H]1C(=O)O	i	.	.	total CFTR fold 25 µM=1&1;total CFTR viability 25 µM=89&104
O=C(O)CCn1cccnc1=O	i	1.1	97
COc1cc(CN)ccc1OC1CCCC1	i	1.1	96
CSCCC1NC(=S)N(c2cccc(N3CCOC3=O)c2)C1=O (stereo not drawn)	i	0.95	103
O=S(=O)(Nc1ccc(Cl)cc1)c1ccc(N2CCOCC2)c(NS(=O)(=O)c2cc(Br)ccc2Br)c1	i	0.89	93
Clc1ccccc1-n1c(SCc2nc(-c3ccccc3)no2)nnc1N1CCCC1	i	0.99	86
CNS(=O)(=O)Cc1ccc2[nH]cc(CCN(C)C)c2c1	i	.	.	total CFTR fold 25 µM=1&1.1&1.1;total CFTR viability 25 µM=107&83&110
N#C/C(=C/c1ccc(C#N)cc1)c1nc(-c2ccccc2)cs1	i	0.93	102
Cc1nn(CN2CCC(c3nc4ccccc4o3)CC2)c(=S)n1C1CC1	i	1	102
COC(=O)C1=C(C)NC(C)=C(C(=O)OCC(C)C)C1c1cccc([N+](=O)[O-])c1 (stereo not drawn)	i	.	.	total CFTR fold 25 µM=1.1;total CFTR viability 25 µM=70
CC(=O)OCC(=O)[C@@]12OC3(CCCC3)O[C@@H]1CC1C3CCC4=CC(=O)C=C[C@]4(C)[C@@]3(F)[C@@H](O)C[C@@]12C (stereo partly drawn)	i	.	.	total CFTR fold 25 µM=0.96;total CFTR viability 25 µM=78
CC(c1nnc(-c2ccc([N+](=O)[O-])cc2)o1)N1CCCc2ccccc21 (stereo not drawn)	i	0.92	90
CCCCCCCCCNC(=O)c1nccnc1N	i	0.79	86
O=C(COc1ccc(N2CCCC2=O)cc1)NC1CCCC1	i	0.94	98
O=C(OCc1cc(=O)n2cc(Cl)ccc2n1)c1cccnc1SCC(F)(F)F	i	1.1	94
O=C(CN1C(=O)NC2(CCCCC2)C1=O)c1ccc(F)c(F)c1	i	0.96	68
Cn1ccc(NC(=O)C2CCC(C(C)(C)C)CC2)n1 (stereo not drawn)	i	0.99	79
O=S(=O)(NCC1(c2ccccc2)CCC1)c1cccc(F)c1	i	0.91	91
COC(=O)C1=C(C)N(C2CC2)C(=S)NC1c1ccc(F)cc1F (stereo not drawn)	i	1	92

(listing goes on)
SMILES	total CFTR	total CFTR fold 10 ug/mL	total CFTR viability 10 ug/mL	others
COc1cc(/C=C/C(=O)c2ccc(OC(F)(F)F)cc2)cc(OC)c1O	i	0.61	50
CCCCCCNC(=O)n1cc(F)c(=O)[nH]c1=O	i	.	.	total CFTR fold 25 µM=1;total CFTR viability 25 µM=83
CC(=O)N1CCc2cc(NC(=O)C3CCCN3C(=O)C34CC5CC(CC(C5)C3)C4)ccc21 (stereo not drawn)	i	0.97	105
CC(C(=O)O)c1ccc(N2Cc3ccccc3C2=O)cc1 (stereo not drawn)	i	.	.	total CFTR fold 25 µM=1.1;total CFTR viability 25 µM=84
O=S(=O)(NCc1ccc2c(c1)OCCO2)c1cc(Cl)cc(Cl)c1	i	1	93
CCC(C)(C)NC(=O)CSc1nc2sc3c(c2c(=O)[nH]1)CCCC3	i	0.81	69
O=S(=O)(Cc1ccc(Cl)c(Cl)c1)Cc1ccccc1SC(F)F	i	1	81
Cc1cc(C2CCCN2CN2C(=O)C(=O)c3cc4c(cc32)OCCO4)on1 (stereo not drawn)	i	1.1	106
CC1CN(Cn2nc(C3COc4ccccc4O3)n(C)c2=S)CCO1 (stereo not drawn)	i	0.94	98
CC(C)c1noc(CS(=O)(=O)Cc2c(F)cccc2Cl)n1	i	0.92	96
CN(CC12CC3CC(CC(C3)C1)C2)C(=O)C1CCN(C(=O)c2cccs2)CC1	i	1	95
Cn1ccnc1Sc1ccc(S(=O)(=O)NCCN2CCOCC2)cc1[N+](=O)[O-]	i	1.1	112
NS(=O)(=O)N1CCc2ccc(NS(=O)(=O)c3ccc4c(c3)CCC4)cc21	i	0.99	83
O=C(Nc1cc2c(cc1Br)OCCO2)c1cc(Cl)c2c(c1)OCO2	i	0.91	102
O=C[C@H](O)[C@@H](O)[C@H](O)[C@H](O)CO	i	.	.	total CFTR fold 25 µM=1;total CFTR viability 25 µM=93
CN(Cc1ccc2c(c1)OCCO2)S(=O)(=O)c1cc(Br)ccc1Br	i	0.97	96
CN(CCOc1ccccc1)Cn1nc(C2CC2)n(-c2ccccc2)c1=S	i	1.1	103
c1ccc2c(c1)OCCN2Cc1ccc(-n2cccn2)cc1	i	0.86	84
COc1ccc(NS(=O)(=O)c2ccc(S(C)(=O)=O)cc2)cc1OC(F)F	i	1.1	91
CN/C(=C/[N+](=O)[O-])NCCSCc1ccc(CN(C)C)o1	i	.	.	total CFTR fold 25 µM=1.2;total CFTR viability 25 µM=102
O=C(C1CC=CCC1)N1CCN(c2ncc(Br)cn2)CC1 (stereo not drawn)	i	0.87	91
CC(=O)Nc1ccc(C(=O)OCc2nc(-c3cccs3)oc2C)s1	i	1.1	102
COc1ccc2c(C)cc(SCCSc3cc(Cl)ccc3Cl)nc2c1	i	1	104
O=C(C1=C(O)C(=O)N(CCCn2ccnc2)C1c1cccnc1)c1ccco1 (stereo not drawn)	i	1	106
CCCCCNC(=O)c1cc(Br)c[nH]1	i	1	70

Pulled by compound from above, 4 records:
SMILES	total CFTR	total CFTR fold 10 ug/mL	total CFTR viability 10 ug/mL	others
Cc1cc(C2CCCN2CN2C(=O)C(=O)c3cc4c(cc32)OCCO4)on1 (stereo not drawn)	i	1.1	106
CC1CN(Cn2nc(C3COc4ccccc4O3)n(C)c2=S)CCO1 (stereo not drawn)	i	0.94	98
O=C(O)C1CC(=O)N(c2ccc(S(=O)(=O)Nc3cc(Cl)cc(Cl)c3)cc2)C1 (stereo not drawn)	i	1	101
CN(Cc1ccc2c(c1)OCCO2)S(=O)(=O)c1cc(Br)ccc1Br	i	0.97	96

Remaining list, next part.
SMILES	total CFTR	total CFTR fold 10 ug/mL	total CFTR viability 10 ug/mL	others
O=c1[nH]cnc2c1CN=N2	i	.	.	total CFTR fold 25 µM=1;total CFTR viability 25 µM=102
CC(=O)NCc1ccc(-c2csc(NC(=O)C34CC5CC(CC(Cl)(C5)C3)C4)n2)s1	i	0.9	81
c1cc2c(cc1Sc1nc(CN3CCOCC3)nc3sc4c(c13)CCC4)OCCO2	i	0.97	89
O=C(Nc1ccc([N+](=O)[O-])cc1Cl)c1cc(Cl)ccc1O	i	.	.	total CFTR fold 25 µM=0.95;total CFTR viability 25 µM=36
O=S(=O)(NC1CCN(C2CC2)CC1)c1cc(Cl)cc(Cl)c1	i	1.1	113
CCCN1C(=O)C(=O)N(Cc2cc(=O)oc3cc(C)c(C)cc23)C1=O	i	1	97

Only part of the results is shown. The share of hits here may be higher or lower than overall.
